ClpP mod: qHTS Assay for Activators of ClpP. ATP-dependent Clp protease proteolytic subunit (Bacillus subtilis (strain 168)), P80244. purified B. subtilis ClpP, FRET peptide cleavage, 20 min. 340,000 tested, 1.9% active. Potency, µM (top dose mostly 57.5 µM), for the others: at the top dose activity change, negative = active; active = well fitted falling curve with a large enough effect; inconclusive = small, poorly fitted or top-dose-only effect; inactive = no such curve, though single readings can be large or run the other way; also: potency is read from the fitted curve at half-maximal effect; the source files actives as falling curves though it sought activators and does not explain the sign; nearly all actives have a fitted effect of over 65% in size; many hits overshoot -100%
Target sequence (P80244 whole entry, looked up): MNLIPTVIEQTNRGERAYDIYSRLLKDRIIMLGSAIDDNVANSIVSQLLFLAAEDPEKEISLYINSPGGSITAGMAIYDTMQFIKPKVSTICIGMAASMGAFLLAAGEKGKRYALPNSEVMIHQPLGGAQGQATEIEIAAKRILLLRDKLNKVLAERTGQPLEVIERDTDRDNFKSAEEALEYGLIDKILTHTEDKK
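Purified B. subtilis ClpP, 10 microg/mL final in Tris/HCl pH8 with KCl, BSA, glycerol and Tween-20, cleaved an Abz/nitrotyrosine-quenched decapeptide. Fluorescence (ex 320, em 430) was read at 0 and 20 min at room temperature. Delta was normalized to 5.8 microM ADEP and DMSO/no-enzyme controls.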
TRPML1 ag: qHTS for Agonists of the Human Mucolipin Transient Receptor Potential 1 (TRPML1); TRPML1-expressing cells, Ca2+ dye fluorescence, FDSS; host cell line not named in the record; reference of the full effect not given here; activation, % (test concentration not listed); 410,000 tested, 0.12% active; AID 624414, 2012; in the data active = activation above about 50%; inconclusive = about 30% to 50%; inactive = below about 30%; also: 0% is about no effect; the text of the record puts the active cut at 80%
Target sequence (Q9GZU1 whole entry, looked up): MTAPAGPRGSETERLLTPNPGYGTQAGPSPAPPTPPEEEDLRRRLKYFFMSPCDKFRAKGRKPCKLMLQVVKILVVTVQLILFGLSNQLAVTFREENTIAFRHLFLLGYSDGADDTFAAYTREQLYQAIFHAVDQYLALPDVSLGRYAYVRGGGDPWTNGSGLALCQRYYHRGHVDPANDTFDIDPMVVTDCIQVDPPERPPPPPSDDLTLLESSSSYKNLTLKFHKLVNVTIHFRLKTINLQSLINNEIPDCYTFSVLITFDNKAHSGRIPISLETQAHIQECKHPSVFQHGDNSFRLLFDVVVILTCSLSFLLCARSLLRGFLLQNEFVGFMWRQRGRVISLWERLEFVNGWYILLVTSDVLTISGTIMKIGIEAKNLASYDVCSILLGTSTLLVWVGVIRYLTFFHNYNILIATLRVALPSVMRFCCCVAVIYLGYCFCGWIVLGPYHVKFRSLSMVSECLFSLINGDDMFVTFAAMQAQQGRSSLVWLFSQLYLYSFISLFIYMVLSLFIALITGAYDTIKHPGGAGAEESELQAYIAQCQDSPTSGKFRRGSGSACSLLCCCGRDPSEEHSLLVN
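Agonist activity was taken from a 110 s kinetic Ca2+ dye read on the FDSS after pinning compounds onto TRPML1-DL cells. The cells were seeded at 1,500/well with Tet inducer, incubated about 16 h, then dye-loaded at room temperature.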
gsp antagonist: qHTS for Antagonists of gsp, the Etiologic Mutation Responsible for Fibrous Dysplasia/McCune-Albright Syndrome: qHTS; AID 624288, 2012; Potency, µM (top dose mostly 76.9 µM), without a hit: at the top dose activity change, negative = inhibition, hits mostly inhibitors; 340,000 tested, 0.4% active; gsp-mutant cells, cAMP HTRF, 30 min; control for the full effect not named in the record; active = falling curve of any shape with a large fitted effect; inconclusive = falling curve, mostly with a smaller effect; inactive = flat or rising curve; cell line not stated here;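 also: intracellular cAMP measured with PDE inhibitor Ro 20-1724 present during compound exposure; potency is read from the fitted curve at half-maximal effect; % is scaled to controls: 0 for no effect and ±100 for the full control effect; nearly all actives have a fitted effect of over 65% in size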
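Measurement of cellular cAMP by homogeneous time-resolved fluorescence following a 30 min compound exposure at 37C. The PDE inhibitor […] was present throughout; the assay buffer was DPBS with 0.05% BSA and 0.005% Tween 20.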
gsp ag: qHTS for Agonist of gsp, the Etiologic Mutation Responsible for Fibrous Dysplasia/McCune-Albright Syndrome: qHTS | gsp mutant cells, cAMP HTRF, 30 min; control for the full effect not named in the record | 340,000 tested, 0.13% active | AID 624287, 2012 | Potency, µM (titrated, usually from 76.9 µM), inactives show at the highest dose activation (cAMP increase), most hits filed as activators; active = well fitted activation curve with a large enough effect; inconclusive = small, poorly fitted or top-dose-only effect, or another doubt; inactive = no such curve, though single readings can be large or run the other way; cell line not stated here;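 also: phosphodiesterase inhibitor Ro 20-1724 added with compounds to block cAMP breakdown; potency is read from the fitted curve at half-maximal effect; nearly all actives have a fitted effect of over 60% in size; about a fifth of the inactives were tested at one dose only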
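Cells stably selected in G418 were plated at 2000/well, grown 16-24 hr, then given compounds in DMSO with the PDE inhibitor […] (300 uM solution added) for 30 min at 37C; cAMP was read by HTRF.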
Menin-MLL FL inh: qHTS Assay for Inhibitors Targeting the Menin-MLL Interaction in MLL Related Leukemias: Competition With Fluorescein Labeled MLL-derived Peptide | Fluorescence polarization, fluorescein-MLL peptide displacement from menin | 290,000 tested, under 10 active | FP activity change, % at 61.4 µM; inconclusive = falling polarisation curve, or a change in total fluorescence; inactive = total fluorescence flat and polarisation flat or rising; no compound was filed as active; the % refers to the polarisation; negative = inhibition;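 also: % of control where 0% means no effect; inhibitors lower the polarisation; unlabelled MLL peptide was the positive control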
TRPML1 inh: qHTS for Inhibitors of the Human Mucolipin Transient Receptor Potential 1 (TRPML1) | TRPML1-inducible cells, Ca2+ dye fluorescence, FDSS; stronger effect = lower value; inhibition of EC80 agonist-evoked calcium signal | Mucolipin-1 (Homo sapiens), Q9GZU1 | activity change, negative = inhibition, % (no concentration beside the values) | 390,000 tested, 0.02% active; in the data active means activity change below about -50%; inconclusive means about -30% to -50%; inactive means above about -30%;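 also: stimulus is agonist 54-4 at its EC80 concentration; % is scaled to controls: 0 for no effect and ±100 for the full control effect; compound concentration not given in the record; the text of the record puts the active cut at -80%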
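Tet-induced TRPML1-DL cells loaded with Ca8 no-wash calcium dye were read kinetically on FDSS. Compound addition was followed by EC80 agonist 54-4 (4 uM final); inhibition was read over 110 s.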
The depositor's hits bear a star; ? = inconclusive; nt = not tested or not shown; & = joins results of further samples; [ ] = remark or other dose.

SMILES	ClpP mod	TRPML1 ag	gsp antagonist	gsp ag	Menin-MLL FL inh	TRPML1 inh
CCOc1ccc(S(=O)(=O)N2CCc3ccccc3C2)cc1	-0.4%	1.5	8%	-23%	-1.6	-7
Cc1ccc(-n2ncc(C(=O)NCCc3ccsc3)c2C2CCN(C(=O)OC(C)(C)C)CC2)cc1C	0.5%	0.5	nt	nt	nt	-2
Cc1ccc(NC(=O)C2CCN(S(=O)(=O)c3cccc4nsnc34)CC2)cc1	0.4%	-1.2	nt	nt	nt	-8
CCCCCCSc1ccc([C@H]2N[C@@](CC(C)C)(C(=O)OC)[C@H]3C(=O)N(CC)C(=O)[C@@H]23)cc1	-3.0%	-0.9	4%	nt	nt	-6
Cc1ccc(OCC(=O)NC2CCCC2)c(C)c1	-3.8%	0.6	0%	-25%	1.3	0
COc1ccc(NC(=O)c2ccc(N3C(=O)C4CC=C(Cl)CC4C3=O)cc2)cc1 (configuration not stated)	-2.8%	-0.3	-1%	1%	-6.5	0
CN(C)S(=O)(=O)c1ccc2c(c1)nc(CCC(=O)NCCc1ccc(Cl)cc1)n2C	-3.0%	0.6	-4%	-51%[inhibitor]	-0.5	5
CC1CCC(NC(=O)Nc2cccs2)CC1 (configuration not stated)	1.1%	1.2	0%	7%	16	4
Cc1cc(C)nc(N(C#N)Cc2ccc([N+](=O)[O-])cc2)n1	nt	-0.4	-2%	-47%[inhibitor]	-1.9	84
CCc1cc(SC#N)cc(C)c1N	1.2%	-0.8	1%	-1%	-12	50

Three entries already listed, ordered by the number in gsp ag, lowest first:
canonical_smiles	gsp ag
Cc1ccc(OCC(=O)NC2CCCC2)c(C)c1	-25%
CCOc1ccc(S(=O)(=O)N2CCc3ccccc3C2)cc1	-23%
CCc1cc(SC#N)cc(C)c1N	-1%

(next part)
SMILES	ClpP mod	TRPML1 ag	gsp antagonist	gsp ag	Menin-MLL FL inh	TRPML1 inh
Cc1cccc(C)c1NC(=O)CNC(=O)c1c(C)nn(-c2ccccc2)c1Cl	2.1%	2.1	-19%	15%[15.4 µM]	nt	5
CCOC(=O)C(=O)Nc1ccccc1C(N)=O	4.0%	-0.3	0%	13%	1.7	-5
CC1(C)Cc2c(sc3[nH]c(=O)n(CC(=O)NCC4CCCO4)c(=O)c23)CO1 (configuration not stated)	-8.1%	0.7	21%	?	-5.5	24
O=C(CN1C(=O)NC2(CCCC2)C1=O)N1CCN(Cc2ccccc2)CC1	nt	0.5	6%	8%[15.4 µM]	nt	2
CCOc1ccc2nc(Cl)c(C3CC(c4ccc(C)cc4)=NN3C(=O)CCC(=O)O)cc2c1 (configuration not stated)	-8.5%	-0.2	nt	nt	nt	-11
Cc1ccc(C(=O)NCCC(=O)N2CCCC2)cc1	-3.0%	nt	10%	-9%	-0.5	nt
O=C(Nc1ccccn1)c1ccc(Br)c(S(=O)(=O)N2CCCC2)c1	-0.3%	0.1	-5%	3%	1.4	4
O=C(Nc1ccc(C(=O)O)cc1)/C(=C/c1ccc([N+](=O)[O-])cc1)NC(=O)c1ccccc1	nt	-0.5	11%	0%[15.4 µM]	1.4	-14
COc1ccc(-c2[nH]ncc2-c2cnn(-c3ccccc3)c2)c(O)c1	-7.7%	0.5	-15%	1%	1.5	-5
CCN(CC)c1ccc(NC(=O)Cn2ncc3c(C)n(Cc4ccccc4F)c(C)c3c2=O)c(C)c1	-0.9%&0.7%	-0.4&-0.1	13%	-12%[15.4 µM]	-1.3	-9&-3
COc1ccc(Cn2c(O)c(/C=N/NC(=O)c3cccnc3)c3ccccc3c2=O)cc1	nt	18	nt	-3%[15.4 µM]	?	-4
CC(C)(C)NC(=O)C(=O)NNC(=O)COc1ccc(Br)cc1	0.9%	-0.1	5%	1%	5.2	-5
CC(C)(C)c1ccc(C(=O)NCc2nnc(SCC(=O)N3CCCC3)o2)cc1	2.4%	0.3	nt	-82%[inhibitor]	nt	-15
CCOc1ccc(CNC(=O)C2Cc3ccccc3N2C(=O)CC)cc1 (configuration not stated)	1.3%	0.9	nt	nt	nt	-11
CCCCOC(=O)Nc1ccc(C(=O)OC)cc1	0.4%	-0.1	1%	-29%	4.1	3
COc1ccc(C2C(C(C)=O)=C(C)N=c3s/c(=C\c4ccc5c(c4)OCO5)c(=O)n32)c(OC)c1 (configuration not stated)	2.1%	-0.8	-11%	25%	nt	31
CCOC(=O)N/N=C\C=C\c1ccco1	nt	-0.4	-16%	-9%	12	-3
COc1cccc(C(c2nnnn2Cc2ccco2)N2CCN(Cc3ccccc3)CC2)c1OC (configuration not stated)	nt	14	1%	-32%[inhibitor]	1.6	-7
COc1ccc(C)cc1NC(=O)NNC(=O)c1cc2ccccc2cc1O	-1.8%	1.8	-18%	?	?	-21
CCn1c(NC(=O)Nc2cccc(C)c2C)cc2sccc21	2.2%	-0.7	-11%	-51%[inhibitor]	?	-8
Cc1cccc(C)c1NC(=O)Nc1cccs1	-2.7%	-0.3	-6%	?	13	14
CC(=O)Nc1cnc(/C=C\CCCO)cn1	4.4%	-0.1	nt	nt	nt	-16
Cc1nc2c(ncn2-c2ccccc2)c(=O)n1NC(=O)CN1CCOCC1	2.3%	1.1	2%	-1%	-0.2	18
COc1ccc(N=N/C(=C\O)C(=O)c2ccco2)cc1	nt	0.2	0%	8%[15.4 µM]	3.6	5
CCCCNC(=O)CSc1nc2ccccc2n1S(=O)(=O)c1ccc(Cl)cc1	0.6%	0.2	16%	5%	-2.6	11
O=C(CN1CCN(CC(=O)Nc2ccccc2F)CC1)Nc1ccc2c(c1)OCCO2	-2.9%	0.5	0%	-59%[inhibitor]	-2.2	-2
Cc1ccc(C2C(=O)N(C3CCC(C)CC3)CC(=O)N2C2CC2)cc1 (configuration not stated)	3.6%	0.4	6%	-15%	-1.6	1
COC(=O)Cn1ccc(-c2ccc(Cl)cc2)c(C#N)c1=O	-17%	0.4	10%	2%	-2.7	-10
COc1cccc(CC2(CO)CCCN(Cc3cn[nH]c3-c3cc(C)ccc3C)C2)c1 (configuration not stated)	0.7%	-0.9	4%	-9%	-1.8	31
COc1cc(/C=C/C(=O)OCC(=O)NC(=O)NCc2ccccc2)ccc1OCC#N	6.5%	1.4	-6%	-42%[inhibitor]	2.8	-2
CCCCn1c(N2CCCC2)nc2c1c(=O)[nH]c(=O)n2C	nt	0.0	-6%	23%	4.7	1
Nc1c(C(=O)OCC2CCCO2)c2nc3ccccc3nc2n1C1CCCCC1 (configuration not stated)	14µM*	1.5	-15%	-9%	5.3	-3
Cc1ccc(S(=O)(=O)NNC(=O)C2CCN(Cc3ccccc3)CC2)cc1	0.0%	0.1	14%	5%	0.5	-8
N=c1c(S(=O)(=O)c2ccccc2)cc2c(=O)n3ccccc3nc2n1Cc1cccnc1	nt	4.3	-4%	21%[15.4 µM]	nt	5
O=S(=O)(Nc1ccc(-c2ccc(N3CCCCCC3)nn2)cc1)c1ccc(C(F)(F)F)cc1	-7.7%	8.5	nt	nt	nt	-20
O=C(CSC1=NS(=O)(=O)c2ccccc2N1)N1CCCCC1	-12%	-0.7	2%	4%	nt	20
COc1ccc(N(C)C(=O)Cc2c(C(=O)O)n(C)c3ccccc23)c(OC)c1	-4.2%	0.1	4%	21%[15.4 µM]	2.3	-1
CCOC(=O)c1ccc(OC(=O)c2cn(-c3cccc(OC)c3)c(=O)c3ccccc23)cc1	?	1.5	nt	nt	nt	-18
CC1CCCC(NC(=O)COC(=O)[C@@H](NC(=O)c2ccc(F)cc2)C(C)C)C1C (some centres not stated)	-2.1%	0.5	-18%	8%[15.4 µM]	nt	-13
CCCCNC(=O)[C@@H]1CSC2c3ccc(OC)c(OC)c3C(=O)N21 (some centres not stated)	-28%	1.7	12%	10%	-5.0	?
Cc1nn(C)c2c1c(-c1ccccc1)cc(=O)n2C(C)C(=O)NCCc1ccc(Cl)cc1 (configuration not stated)	4.3%	1.5	nt	nt	nt	20
COc1cc(C(F)(F)F)c(C(=O)N(C)Cc2cccc(Cl)c2)cn1	1.5%	-0.9	6%	6%[15.4 µM]	2.2	-10
CCOC(=O)Cc1nnc(Nc2ccc(C)cc2)c2ccccc12	4.4%	0.5	-2%	-24%	2.3	31
COc1cc2ccccc2cc1C(=O)N1CCc2ccccc21	1.1%	2.8	-18%	-8%[15.4 µM]	nt	-1
COc1ccc(-c2cc(C(=O)N/N=C/c3cccnc3)c3cc(C)cc(C)c3n2)cc1	?	0.5	-5%	-10%[15.4 µM]	-1.6	7
CCCCC(c1nnnn1CC1CCCO1)N1CCN(c2cc(Cl)ccc2C)CC1 (configuration not stated)	4.1%	-0.1	-14%	-1%	0.7	-2
COCCN(C(=O)CN1CCc2ccccc2C1)c1c(N)n(Cc2ccccc2)c(=O)[nH]c1=O	-0.5%	-0.8	-4%	0%	4.5	1
Cc1c(C)c2ccc(OCC(=O)Nc3ccccn3)cc2oc1=O	4.6%	0.0	6%	16%	nt	-2
O=C(/C=C/c1ccc(F)cc1)NC(=S)Nc1ccccc1O	nt	-0.7	-7%	-22%[15.4 µM]	7.9	-3
O=C1c2ccccc2C(=O)N1CCCCN(C(=O)c1cc2ccccc2oc1=O)c1ccc(Cl)cc1	0.9%	0.5	7%	-22%[15.4 µM]	-2.0	50

The list continues.
SMILES	ClpP mod	TRPML1 ag	gsp antagonist	gsp ag	Menin-MLL FL inh	TRPML1 inh
Cc1cccc(NC(=O)c2ccc(N3C(=O)C4CCCCC4C3=O)cc2)c1C (configuration not stated)	-0.5%	-0.5	-2%	-36%[inhibitor]	nt	5
COc1ccc2cc3c(N)nn(C(=O)Cc4ccccc4OC)c3nc2c1	-5.2%	0.0	-7%	?	-1.3	-6
COc1cc(OC)c2c(-c3ccccc3)cc(=O)oc2c1C(CCN1CCN(c2ccccc2)CC1)c1ccc(N(C)C)cc1 (configuration not stated)	0.9%	0.4&-0.7	2%	nt	1.5&3.0	-15&-1
COc1ccc(OCc2nnc(SCC(=O)N3C(C)CCCC3C)o2)cc1 (configuration not stated)	nt	1.3	-1%	0%[15.4 µM]	?	26
